Menin-MLL FL inh: displaces fluorescein MLL peptide from human menin; Fluorescence polarization, fluorescein-MLL peptide displacement from menin; FP activity change, % at 61.4 µM; 290,000 tested, under 10 active; inconclusive = falling polarisation curve, or a change in total fluorescence; inactive = total fluorescence flat and polarisation flat or rising; no compound was filed as active; the % refers to the polarisation; negative = inhibition;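 also: % of control where 0% means no effect; inhibitors lower the polarisation; unlabelled MLL peptide was the positive control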
D2 PAM: positive allosteric modulators of human D2 dopamine receptor. DiscoveRx D2 beta-arrestin cells, luminescence, 90 min; 100% = 57 uM dopamine signal. P14416. potentiation, % (test concentration not listed). hit rate 0.23% among 360,000; active = potentiation of 50% or more; inconclusive = 30% to 50%; inactive = 30% or less;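 also: compound concentration not given in the record; tested on top of an EC20 dose of dopamine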
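PathHunter beta-arrestin assay in DiscoveRx D2 cells. Compounds were added with an EC20 of dopamine (50 nM final) for 90 min at 37 deg C. Luminescence was read 1 h after detection reagent, with 57 uM dopamine as the EC100 control.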
TRPV1 potentiator: potentiators of human vanilloid receptor 1 (TRPV1) | TRPV1-expressing cells, Fluo-8 calcium influx, capsaicin EC20 potentiation; host cell line not named in the record; control for the full effect not named in the record | potentiation, % at 8.33 µM | hit rate 0.02% among 320,000 | AID 540277; active means potentiation above 80%; inconclusive means 30% to 80%; inactive means below 30%; also: 0% is about no effect
Target sequence (Q8NER1 whole entry, looked up): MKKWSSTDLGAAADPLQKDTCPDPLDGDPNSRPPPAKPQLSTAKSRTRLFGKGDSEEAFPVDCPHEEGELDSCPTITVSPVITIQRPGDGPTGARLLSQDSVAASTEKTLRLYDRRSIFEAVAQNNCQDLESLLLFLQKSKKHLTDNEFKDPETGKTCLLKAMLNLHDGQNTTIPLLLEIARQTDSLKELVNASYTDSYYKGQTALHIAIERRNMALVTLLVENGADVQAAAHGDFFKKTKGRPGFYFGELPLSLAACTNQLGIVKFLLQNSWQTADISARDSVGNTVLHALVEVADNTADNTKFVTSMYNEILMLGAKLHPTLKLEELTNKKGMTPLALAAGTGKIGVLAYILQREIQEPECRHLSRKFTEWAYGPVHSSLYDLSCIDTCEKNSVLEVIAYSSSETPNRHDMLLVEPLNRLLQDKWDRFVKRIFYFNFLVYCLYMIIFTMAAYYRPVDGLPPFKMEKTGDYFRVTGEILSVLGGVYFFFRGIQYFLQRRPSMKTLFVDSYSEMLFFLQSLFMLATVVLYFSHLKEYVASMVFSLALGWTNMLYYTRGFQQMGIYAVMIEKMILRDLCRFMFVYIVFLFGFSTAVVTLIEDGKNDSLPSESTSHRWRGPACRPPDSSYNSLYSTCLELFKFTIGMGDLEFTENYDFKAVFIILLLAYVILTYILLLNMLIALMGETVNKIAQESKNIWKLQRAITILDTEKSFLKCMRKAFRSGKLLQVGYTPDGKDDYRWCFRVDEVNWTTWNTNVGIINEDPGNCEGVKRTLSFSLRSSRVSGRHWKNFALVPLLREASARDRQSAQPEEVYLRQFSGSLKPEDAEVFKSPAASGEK
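Fluo-8 calcium influx in TRPV1-expressing cells, kinetic read (ex 480/em 520 nm). Compound added and read 3 min for agonist activity, followed by capsaicin at EC20 final and 2 min further read for enhancement.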
ClpP mod: qHTS Assay for Activators of ClpP; purified B. subtilis ClpP, FRET peptide cleavage, 20 min; Potency, µM (doses to about 57.5 µM), for inactives: top-dose activity change, negative = active; hit rate 1.9% among 340,000; AID 651965, 2013; active = well fitted falling curve with a large enough effect; inconclusive = small, poorly fitted or top-dose-only effect; inactive = no such curve, though single readings can be large or run the other way; also: potency is read from the fitted curve at half-maximal effect; the source files actives as falling curves though it sought activators and does not explain the sign; nearly all actives have a fitted effect of over 65% in size; many hits overshoot -100%
Target sequence (P80244 whole entry, looked up): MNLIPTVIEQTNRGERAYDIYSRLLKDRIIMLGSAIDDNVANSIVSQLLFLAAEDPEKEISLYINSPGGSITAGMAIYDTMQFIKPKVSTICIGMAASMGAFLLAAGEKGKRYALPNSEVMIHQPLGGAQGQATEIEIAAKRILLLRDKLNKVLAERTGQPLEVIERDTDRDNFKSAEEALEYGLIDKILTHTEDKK
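FRET quenching reversal measured ClpP activation: 10 microg/mL B. subtilis ClpP at pH 8 with the FRET-FV decapeptide, read at 430 nm after 320 nm excitation. The 20-min minus 0-min signal was scaled between DMSO/no-enzyme wells and ADEP (5.8 microM final).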
gsp ag: gsp mutant agonism; hit rate 0.13% among 340,000; gsp mutant cells, cAMP HTRF, 30 min; control for the full effect not named in the record; Potency, µM (titrated, usually from 76.9 µM), inactives show at the top dose activation (cAMP increase), most hits filed as activators; active = well fitted activation curve with a large enough effect; inconclusive = small, poorly fitted or top-dose-only effect, or another doubt; inactive = no such curve, though single readings can be large or run the other way; cell line not stated here;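 also: phosphodiesterase inhibitor Ro 20-1724 added with compounds to block cAMP breakdown; potency is read from the fitted curve at half-maximal effect; nearly all actives have a fitted effect of over 60% in size; about a fifth of the inactives were tested at one dose only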
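Cells in DMEM/10% FBS with G418 were pretreated with compounds in DMSO plus […] (300 uM stock) for 30 min at 37C. cAMP was measured by HTRF (cAMP-d2 plus anti-cAMP antibody-K) after 30 min at room temperature.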
gsp antag: antagonists of gsp mutant (McCune-Albright syndrome). gsp-mutant cells, cAMP HTRF, 30 min; control for the full effect not named in the record. Potency, µM (doses to about 76.9 µM), for inactives: top-dose activity change, negative = inhibition, usual class: inhibitors. hit rate 0.4% among 340,000; active = falling curve of any shape with a large fitted effect; inconclusive = falling curve, mostly with a smaller effect; inactive = flat or rising curve; cell line not stated here;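 also: intracellular cAMP measured with PDE inhibitor Ro 20-1724 present during compound exposure; potency is read from the fitted curve at half-maximal effect; % is scaled to controls: 0 for no effect and ±100 for the full control effect; nearly all actives have a fitted effect of over 65% in size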
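Measurement of cellular cAMP by homogeneous time-resolved fluorescence following a 30 min compound exposure at 37C. The PDE inhibitor […] was present throughout; the assay buffer was DPBS with 0.05% BSA and 0.005% Tween 20.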
Sfp PPTase inh: inhibitors of Bacillus subtilis Sfp phosphopantetheinyl transferase. Biochemical Sfp PPTase activity, qHTS. Potency, µM, without a hit: max response, negative = inhibition, actives largely listed as inhibitors. hit rate 3.5% among 310,000; active = well fitted inhibition curve with a large enough effect; inconclusive = small, poorly fitted or top-dose-only effect, or another doubt; inactive = no such curve, though single readings can be large or run the other way;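 also: the enzyme is Sfp with the accession as filed and its product quenches rhodamine fluorescence; potency is read from the fitted curve at half-maximal effect; 0% = enzyme reaction without inhibitor and -100% = no enzyme wells; top concentration of the series not given in the record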
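Fluorescence-quenching assay with 15 nM Sfp, 5 uM rhodamine-CoA and 12.5 uM BHQ-2-labelled ybbR peptide in pH 7.6 Hepes/MgCl2 buffer. Enzyme was pre-incubated with compound for 15 min at room temperature. Rate was taken from the 30-min fluorescence change (525/598 nm).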
* hit, by the source's call; u = inconclusive; x = no result given; & = joins results of further samples; [ ] = dose if it differs, or a comment.

Every second line gives: Menin-MLL FL inh | D2 PAM | TRPV1 potentiator | ClpP mod | gsp ag | gsp antag | Sfp PPTase inh
O=C1/C(=C\c2ccc3ccccc3c2)CCCc2ccccc21
  1.3 | -7 | -18 | -2.2% | 0% | 4% | -2%
COc1ccc(CCC(=O)NNC(=O)Nc2ccc(C(C)C)cc2)cc1
  -4.1 | -5 | -16 | -3.2% | u | 1% | 12%
Cc1ccc(-n2c(=O)[nH]c3c(oc4ccccc43)c2=O)cc1
  -2.4 | -7 | -7 | -11% | u | 3% | 8%
Cc1cc2oc(=O)cc(-c3ccccc3)c2c(C)c1-c1ccc(F)c(Cl)c1
  5.4 | 0 | x | 1.5% | x | -10% | u
COC(=O)CCS(=O)(=O)c1ccc(NC(C)=O)cc1
  -0.5 | 4 | 4 | 0.8% | u | 1% | 4%
COc1ccc(NC(=O)CC(NCCc2ccccc2)C(=O)O)c(OC)c1 (stereo not given)
  5.7 | -11 | 2 | 0.3% | -16% | 14% | -17%
O=C(NC1CCCC1)c1cc(-c2ccc(F)cc2)on1
  2.1 | -8 | -9 | x | -32%[inhibitor] | -4% | 19%
NCCNc1ccc(C(=O)N2c3ccccc3Sc3ccccc32)cc1[N+](=O)[O-]
  -6.0 | -6 | -13 | 0.4% | -8%[15.4 µM] | 13% | -33%
Nc1cc(S(=O)(=O)Nc2cc(Cl)ccc2Cl)ccc1N1CCCC1
  -0.3 | -4 | 17 | -8.6% | -14% | -1% | 2%
COc1ccc(/C=C/C(=O)OCC(=O)Nc2cccc(Oc3ccccc3)c2)c(OC)c1
  1.5 | -19 | -1 | -18% | 13% | -6% | 16%
O=C(CSc1nnc(COc2ccccc2)o1)N1CCOCC1
  -0.6 | -6 | -7 | 1.8% | u | 1% | 22%
O=C(O)CCN1C(=O)/C(=C2\C(=O)N(Cc3ccc(F)cc3)c3ccccc32)SC1=S
  0.2 | u | 28 | x | 3%[15.4 µM] | 6% | -12%
CCC(=O)N1CCc2cc(-c3csc(NC(=O)c4ccco4)n3)ccc21
  -9.1 | 2 | 9 | x | -5%[15.4 µM] | -21% | 2%
CCCc1[nH]nc2c1C(c1ccc(OC)c(Cn3nc(C)c(Br)c3C)c1)C(C#N)=C(N)O2 (stereo not given)
  1.4 | -2 | u | 0.4% | 0% | -2% | -22%
CC(=O)N1CCN(S(=O)(=O)c2cccc(C(=O)OCC(=O)NCc3ccccc3Cl)c2)CC1
  x | -18 | x | -0.2% | -19% | x | x
O=C(/C=C/c1ccc2c(c1)OCO2)Nc1cccnc1
  -2.5 | -7 | -17 | u | 0% | -3% | 15%
Cc1cnc(C(=O)N2CCN(S(=O)(=O)c3cc(C(F)(F)F)cc(C(F)(F)F)c3)CC2)cn1
  x | 0 | x | -0.3% | -36%[inhibitor] | 6% | x
N#CC1=C(N)NC(SCC(=O)c2ccccc2)=C(C#N)C12CCCC2
  4.0 | 4 | 1 | -5.0% | -22% | -4% | u
COc1ccc2cc(CO)c3cc(OC)c(OC)cc3c2c1
  x | u | x | -21% | x | -5% | x
COc1ccc2[nH]c(=O)c(C(c3nnnn3C3CCCCC3)N3CCN(C)CC3)cc2c1 (stereo not given)
  -4.5 | -8 | 2 | 32µM* | u | 9% | -8%
O=C(COC(=O)c1cccc(Br)c1)NCCc1ccccc1
  5.6 | -4 | -7 | -0.4% | 48% | -1% | 1%
O=C(N/N=C/c1ccc(C(=O)O)cc1)C(=O)N1CCCCCC1
  x | -12 | -2 | 2.4% | u | 11% | 5%
O=C(OCC(=O)N(c1ccccc1)C1CCCCC1)c1ccc(CO)cc1
  x | 11 | -6 | 0.5% | -6% | -9% | x
Cn1c2ccccc2c(=O)c2cc(NCCCN3CCOCC3)ccc21
  x | -23 | x | 3.4% | x | -19% | x
C=CCNc1nc(-c2c(C)nc3ncccn23)cs1
  -2.8 | -37 | -12 | x | -25% | 0% | 2%
CNS(=O)(=O)c1ccc(C)cc1
  -2.9 | -5 | 17 | 0.2% | 5% | 27% | 11%
CCN(CC)S(=O)(=O)c1ccc(N2CCOCC2)c(NC(=O)c2sccc2C)c1
  x | -7 | x | -21% | 22%[15.4 µM] | u | x
CC1=C(C(=O)OCc2ccccc2)C(c2ccc(C(C)(C)C)cc2)NC(=O)N1CCCCCC(=O)O (stereo not given)
  1.6&5.9 | 0 | 17 | -2.2% | 7% | 1% | -13%&11%
O=C(Nc1ccc(N2CCCC2)cc1)c1cccc(Cl)c1
  1.7 | -1 | -16 | x | -3% | -3% | 2%
COCCC(=O)N1CCC(Oc2ccc(C(=O)NC3CCOC(C)(C)C3)cc2)CC1 (stereo not given)
  0.1 | -4 | 15 | x | 24% | 3% | 2%
COc1ccc([N+](=O)[O-])cc1NC1CCCCC1
  5.8 | -14 | 3 | 0.7% | -27% | -35% | -27%
COc1cccc(C=Nc2cc(C(C)C)c(O)cc2C)c1O
  x | 8 | x | -2.1% | -57%[inhibitor] | u | x
OCC[C@H]1C[C@@H](O)[C@H](O)[C@]2(CCc3ccccc3O2)O1
  x | -23 | -28 | -1.9% | x | -6% | x
Cc1ccccc1C(=O)c1cccn1CC(=O)NCC1CCCO1 (stereo not given)
  -0.5 | -4 | -7 | 1.3% | -20% | 4% | 13%
Cc1ccc(-n2c(CSc3nc(C)cc(C)n3)n[nH]c2=S)cc1
  2.6 | -5 | 0 | x | u | 4% | 2%
CCCCCc1cc(=O)oc2c(C(CCN3CCCC(C)C3)c3cc(OC)c(OC)c(OC)c3)c(OC)cc(OC)c12 (stereo not given)
  5.5 | -19 | -19 | u | x | 9% | 0%
CCOc1ccc(C(NC(=O)CC)c2c(O)ccc3ccccc23)cc1 (stereo not given)
  -0.3 | -6 | 0 | u | -10% | -11% | 1%
Cc1ccc(C(=O)Nc2ccc(Br)cc2)cc1S(=O)(=O)Nc1ccccn1
  -4.2 | 10 | 24 | 28µM* | -1% | -12% | 10%
NS(=O)(=O)c1ccc(CCNC(=O)C2Cc3ccccc3CN2C(=O)c2ccco2)cc1 (stereo not given)
  -5.9 | -4 | 0 | -5.7% | 1% | 7% | 7%
O=C(OCCCOC(=O)c1ccccc1O)c1ccccc1O
  1.0 | x | -11 | x | x | x | -4%
Cc1onc(-c2ccccc2Cl)c1C(=O)N1CCCC1
  -1.0 | 1 | 11 | x | 6%[15.4 µM] | 7% | 14%
O=C(c1ccc(S(=O)(=O)N2CCCC2)cc1)N1CCN(c2ccccc2F)CC1
  x | 11 | -12 | -6.2% | -49%[inhibitor] | 12% | 12%
CCC(=O)c1ccc(OCC(=O)OC(C)C(=O)Nc2c(C)n(C)n(-c3ccccc3)c2=O)cc1 (stereo not given)
  x | -10 | x | x | -29%[15.4 µM] | -1% | x
O=C(Nc1ccncc1)c1cccc(F)c1
  3.2 | -20 | -3 | -2.9% | -7% | -2% | 33%[activator]
O=C(Nc1ccc(N2CCOCC2)cc1)C1CC(=O)N(c2ccc(F)cc2)C1 (stereo not given)
  -1.2 | -1 | -5 | -1.9% | u | 6% | 16%
CCCCOc1ccc(S(=O)(=O)NCc2csc(C)n2)cc1
  1.5 | -1 | -4 | 0.0% | -20% | -1% | 7%
CN(CC(=O)NCc1ccco1)S(=O)(=O)c1ccc(F)cc1
  -11 | -3 | -3 | x | 29% | 12% | -3%
COc1ccc(CNC(=O)CN(C(=O)CCC(=O)Nc2ccccn2)c2ccc3c(c2)OCO3)cc1
  -3.4 | -3 | -11 | 0.2% | -13%[15.4 µM] | 0% | 10%
O=C(Nc1ccc(F)cc1)c1cccc2c1C(=O)N(CC1CCCO1)C2 (stereo not given)
  1.0 | 3 | -1 | -1.5% | 25% | -10% | 12%
O=C(COc1ccccc1)NS(=O)(=O)c1ccccc1
  3.4 | -1 | 21 | x | 1% | 9% | 20%
Cc1ccc(NS(=O)(=O)c2cc(-c3cc(C)no3)ccc2C(C)C)nc1
  1.5 | 2 | -1 | -28% | -25% | 2% | 1%
CCOC(=O)N1CCc2c(sc3nc4n(c(=O)c23)N=C(C)CS4)C1
  2.9 | 2 | -15 | u | -1% | -2% | -16%
CCOC(=O)C1=C(C)OC(N)=C(C#N)C1c1c(C)nn(-c2ccccc2)c1Cl (stereo not given)
  3.1 | 6 | -16 | -0.4% | 6% | 18% | 56µM*
COc1ccccc1NC(=O)CN1C(=O)C(C)SC(C)C1=O (stereo not given)
  0.9 | -5 | -8 | x | -1%[15.4 µM] | -1% | 9%
CCOC(=O)c1c(S(=O)(=O)N2CCCCC2C)c(C)n(C)c1C (stereo not given)
  x | -4 | -6 | -3.0% | -1% | 5% | 6%
CC(C)(C)c1ccc(Cn2nnc3c(=O)[nH]c(C4CCCN(C(=O)c5ccco5)C4)nc32)cc1 (stereo not given)
  2.3 | -2 | -3 | x | -24%[15.4 µM] | -7% | -14%
Cc1ccc(N(C(=O)C2CCCC2)C2C=CS(=O)(=O)C2)cc1 (stereo not given)
  1.1 | 4 | 1 | -1.1% | -24% | 2% | 7%
COc1ccccc1-c1nc(SCC(=O)Nc2ccccc2F)n[nH]1
  x | -10 | 2 | 0.5% | -4%[15.4 µM] | 7% | 8%
CCOCCOCN(C#N)c1nc(OC)nc(N(C)C)n1
  1.9 | -8 | 1 | -0.1% | 7% | 2% | 14%
Cc1ccc(CN2C(=O)CSc3ccc(C(=O)NCCN4CCOCC4)cc32)cc1
  2.6 | -21 | -19 | -1.5% | -6% | -3% | 10%
Cc1ccc2nc(SCC(=O)NCc3ccccc3Cl)nc(=O)n2c1
  x | 11 | 0 | u | u | 9% | x
COc1ccc(-c2coc3c(CN4CCCCC4C)c(O)ccc3c2=O)cc1 (stereo not given)
  -1.1 | -7 | 10 | 4.1% | 1% | 6% | 6%
Cc1occc1C(=O)N1CCN(c2ccccc2)CC1
  5.3 | -9 | -4 | -0.3% | 10% | -3% | 6%

Random draw from the library; 5.1% or so of the library scored in one or more.
